# Insulin prom inh – TRM-6 insulin promoter activity inhibition; TRM-6 cells (human fetal islet line), insulin promoter-eGFP reporter, imaging; reporter expression induced with tamoxifen; inhibition, % at 2 µM; hit rate 0.9% among 130,000;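 active means inhibition above the mean plus 3 SD, with well images judged a real hit on visual review, cut at about 60% in these data, passing the limit was not always enough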
# PKD1 inh – blocks activity of human protein kinase D1; PKD1 kinase fluorescence polarization assay; inhibition, %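 (about 10 µM by stock and volumes)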; hit rate 0.056% among 200,000; AID 797;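 active means inhibition of 50% or more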;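 further: controls were vehicle for no effect and a reference inhibitor for full effect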
# Target sequence (Q15139 whole entry, looked up): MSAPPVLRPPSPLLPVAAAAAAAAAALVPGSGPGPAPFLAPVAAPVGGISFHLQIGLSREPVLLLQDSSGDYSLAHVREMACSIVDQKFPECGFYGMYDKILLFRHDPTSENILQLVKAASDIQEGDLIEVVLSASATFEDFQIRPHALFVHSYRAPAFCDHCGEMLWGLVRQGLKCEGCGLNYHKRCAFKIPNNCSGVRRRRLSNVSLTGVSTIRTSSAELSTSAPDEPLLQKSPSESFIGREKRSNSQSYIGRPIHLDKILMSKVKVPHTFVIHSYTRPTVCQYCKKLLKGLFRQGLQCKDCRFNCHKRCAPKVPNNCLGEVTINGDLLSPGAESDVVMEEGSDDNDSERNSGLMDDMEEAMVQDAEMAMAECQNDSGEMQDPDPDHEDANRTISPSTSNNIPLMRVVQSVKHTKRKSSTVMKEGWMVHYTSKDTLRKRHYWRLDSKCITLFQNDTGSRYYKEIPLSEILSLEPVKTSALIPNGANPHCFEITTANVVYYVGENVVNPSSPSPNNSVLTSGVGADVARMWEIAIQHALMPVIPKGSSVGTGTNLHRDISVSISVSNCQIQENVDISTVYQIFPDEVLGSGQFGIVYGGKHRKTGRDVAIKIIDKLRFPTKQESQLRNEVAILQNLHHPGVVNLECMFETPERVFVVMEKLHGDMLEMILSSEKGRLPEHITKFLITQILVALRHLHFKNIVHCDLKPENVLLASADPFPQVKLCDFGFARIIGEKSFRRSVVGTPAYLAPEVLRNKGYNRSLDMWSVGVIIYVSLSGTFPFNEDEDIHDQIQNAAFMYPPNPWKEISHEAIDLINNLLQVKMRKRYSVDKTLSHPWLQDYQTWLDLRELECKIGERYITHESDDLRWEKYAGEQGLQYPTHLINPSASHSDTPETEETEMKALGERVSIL
# GALR2 ag – agonists of human galanin receptor 2 (GALR2) | GALR2-expressing cells, agonist activation read-out | activation, %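 (tested at 5 µM)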 | O43603 | hit rate 0.48% among 140,000;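 active means above mean plus 3 SD of all compounds, about 5% in these data, not always enough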;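 further: 0% = vehicle buffer wells and 100% = reference agonist at full effect; tested in CHO reporter cells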
# HSV augment – increases HSV replication in cells; HSV replication augmentation in cells, fold increase; hit rate 0.005% among 220,000; maximum fold increase;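 active means peak rise of 1.5-fold or more in the series; tested in PC3 cells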;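 further: first round at 10 µM; read as green reporter fluorescence; hits show the peak of a series up to 25 µM; 1 = signal of infected wells without compound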
# RGS16-Gao – RGS16-Galphao interaction regulator (human); hit rate 0.38% among 220,000; O15492+P09471; bead-based flow cytometry RGS16-Galphao binding, fluorescence; actives lie on both sides; binding response (% of control), % at 10 µM;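 active means below 25% or above 175%, edge rows of some plates excepted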;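 further: Galphao activated by GDP with aluminum fluoride before binding; 100% = wells without compound and 0% = beads without RGS; some results beyond the cut were filed as inactive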
# Insulin prom inh cell count – further read-out of Insulin prom inh, marked with its call; normalized cell count, %; measured here: cell count, toxicity; reference of the scale not given here;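 cells exposed to compound for 48 h; stained nuclei by imaging scaled within each plate; lower means fewer cells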
# HSV augment primary fold – also measured in HSV augment; calls as there; fold increase; compound at 10 µM; measured here: primary screen fold increase 10 uM; tested in PC3 cells;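 GFP signal in the first replicate; 1 = infected wells without compound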
# An asterisk follows results filed as active; i = inactive; / = no result given; & = joins results of further samples. No enrichment for hits (roughly 1.3% active in at least one column).
SMILES,Insulin prom inh,Insulin prom inh cell count,PKD1 inh,GALR2 ag,HSV augment,HSV augment primary fold,RGS16-Gao
CCc1nnc2sc(-c3cc(-c4ccccc4)nc4ccccc34)nn12,-69,119,-10,-1.3,i,0.96,97
C/C(=N/NC(=O)c1ccccn1)c1ccc(O)cc1,/,/,/,/,i,0.87,99
Cc1[nH]n(-c2cccc3ccccc23)c(=O)c1/C=N/NC(=O)c1cccc([N+](=O)[O-])c1,65,120,12,-0.8,i,0.95,98
CCC(=O)Oc1ccc(/C(CC)=C(\CC)c2ccc(OC(=O)CC)cc2)cc1,-200,44,-14,-2.8,i,0.8,99
CCn1c(NCc2ccccc2Cl)nc2ccccc21,-49,27,-4,-1.9,i,0.87,105
COc1ccc(S(=O)(=O)N2Cc3ccccc3CC2C(=O)O)cc1OC (centres undefined),/,/,-15,-1.0,i,1,130
CC(C)=CC(=O)N1CCC(N2CCC(C(=O)N3CCOCC3)CC2)CC1,/,/,-2,/,i,0.98,102
CC(=O)c1c(-c2ccc(C)cc2)nc2c3ccccc3ccn12,/,/,-1,/,i,0.87,101
COc1ccc(N(CC(=O)NCC2CCCO2)S(=O)(=O)c2ccc(C)cc2)cc1OC (centres undefined),64,82,-1,-1.6,i,0.97,114
c1ccc(-n2c(-c3ccco3)nnc2N2CCOCC2)cc1,-51,61,-12,-0.8,i,1,105
COc1ccc(NS(=O)(=O)c2cccc(NC(=O)C34CCC(CC3)C4)c2)cc1,-3,107,-2,-2.0,i,1,105
Fc1ccc(/C=N/Nc2nn[nH]n2)cc1,55,151,-2,/,i,0.97,101
CC(C1CC2CCC1C2)n1c(COc2ccccc2F)nnc1SCC(N)=O (centres undefined),-12,55,-1,-1.1,i,0.73,105
O=C(N/N=C/c1cn(-c2ccccc2)nc1-c1cccnc1)c1ccc(F)cc1,/,/,-2,/,i,0.75,96
Cn1cnc2c(N3CCCCC3)nccc21,0,91,-10,-0.3,i,0.87,101
O=Cc1sc(N2CCOCC2)nc1-c1ccccc1,18,115,-4,/,i,0.96,101
CCC(C(=O)NCc1ccc(OC)cc1)n1nc(C)n2c(cc3occc32)c1=O (centres undefined),-17,70,-1,-0.4,i,0.96,136
CCOC(=O)c1c(N)sc(C(=O)Nc2ccc3c(c2)OCO3)c1C,/,/,-4,-0.7,i,0.9,-192
CC1Cc2ccccc2N1C(=O)CO/N=C/c1ccccc1OC(F)F (centres undefined),-9,109,-17,-1.7,i,1,100
C=C/C(C)=C/CC1C(=C)CCC2C(C)(C(=O)O)CCCC12C (centres undefined),/,/,/,/,i,0.81,113

# Structural class: the entries above containing an aryl methoxy group (four)
SMILES,Insulin prom inh,Insulin prom inh cell count,PKD1 inh,GALR2 ag,HSV augment,HSV augment primary fold,RGS16-Gao
COc1ccc(S(=O)(=O)N2Cc3ccccc3CC2C(=O)O)cc1OC (centres undefined),/,/,-15,-1.0,i,1,130
COc1ccc(N(CC(=O)NCC2CCCO2)S(=O)(=O)c2ccc(C)cc2)cc1OC (centres undefined),64,82,-1,-1.6,i,0.97,114
COc1ccc(NS(=O)(=O)c2cccc(NC(=O)C34CCC(CC3)C4)c2)cc1,-3,107,-2,-2.0,i,1,105
CCC(C(=O)NCc1ccc(OC)cc1)n1nc(C)n2c(cc3occc32)c1=O (centres undefined),-17,70,-1,-0.4,i,0.96,136

# Back to the main list, starting 2 compounds before the break.
SMILES,Insulin prom inh,Insulin prom inh cell count,PKD1 inh,GALR2 ag,HSV augment,HSV augment primary fold,RGS16-Gao
CC1Cc2ccccc2N1C(=O)CO/N=C/c1ccccc1OC(F)F (centres undefined),-9,109,-17,-1.7,i,1,100
C=C/C(C)=C/CC1C(=C)CCC2C(C)(C(=O)O)CCCC12C (centres undefined),/,/,/,/,i,0.81,113
CC(=O)NC(c1ccc([N+](=O)[O-])cc1)c1c(O)ccc2ccccc12 (centres undefined),11,104,-9,/,i,1,98
C/C(NC(=O)c1cccc(F)c1)=C1/C(=O)C[C@@H]2[C@H]1C2(C)C,0,106,0,-1.9,i,1,112
Cc1nc2ccccn2c1/C(O)=C1\C(=O)C(=O)N(CCCN(C)C)C1c1ccc(F)cc1 (centres undefined),/,/,-3,-0.9,/,/,/
COCCCNCCOc1ccc(C)cc1[N+](=O)[O-],23,168,-3,-1.1,i,0.99,102
OCC1CCCN(C(=S)Nc2ccc(Nc3ccccc3)cc2)C1 (centres undefined),/,/,3,/,i,1,105
O=C(N/N=C/c1ccc(OC(F)F)cc1)c1ccc(Br)cc1,57,209,-9,-0.3,i,0.94,99
Cc1ccc(C)c(NC(=O)Cn2nnc(C(=O)Nc3c(C)cccc3C)c2N)c1,8,114,-5,0.2,/,/,94
COc1ccc(C2c3c(-c4cc(Cl)c(C)cc4O)n[nH]c3C(=O)N2Cc2cccnc2)cc1OC (centres undefined),36,61,-12,2.0,i,0.65,38
c1ccn2cc(CSc3nnc4ccccn34)nc2c1,/,/,-1,0.0,i,0.76,100
c1ccc(N(c2ccccc2)c2nc(-n3ccnc3)nc(-n3ccnc3)n2)cc1,0,144,0,0.5,i,0.66,/
COC(=O)Nc1ccc(C)cc1NC(=O)OC,-19,155,3,0.7,i,0.91,100
CC(C)(C)c1ccc(OCC(=O)NCc2ccco2)c(Br)c1,33,189,-14,-4.7,i,1,100
O=C1C=C(c2ccc(Cl)cc2)C(=O)N1Nc1ccccc1,8,92,7,-1.4,i,0.7,90
COc1ccc(CN=C2NN=C(c3ccc(Cl)cc3)CS2)cc1,-133,142,-4,/,i,0.93,99
CNc1ccc(Br)cc(C(=O)/C=C/c2cccc(OC)c2)c1=O,/,/,-5,-2.3,i,0.82,85
CCc1ccc(/C=C2\SC(=S)N(CCCC(=O)Nc3ccccn3)C2=O)cc1,17,135,3,-1.6,i,0.96,102
CN(C)S(=O)(=O)c1cccc(NC(=O)COC(=O)c2ccc(Br)o2)c1,11,100,5,-1.3,i,0.96,100
CCOC(=O)C1=C(N)OC2=C(C(=O)CC(C)(C)C2)C1c1ccccc1OC (centres undefined),-5,139,7,/,i,0.99,103
COc1cc(OC)cc(C(=O)NCC(=O)OCC(=O)N2CCc3ccccc32)c1,0,140,-1,/,i,0.88,110
COc1ccc(OC)c(/C=N/NC(=O)c2csc3ccccc23)c1,16,113,2,-0.7,i,0.84,103
O=C(CN1CCOc2ccccc21)NC1CCCCCCC1,/,/,-16,-2.8,i,0.81,/
Cn1c(SCC(=O)N2CCOCC2)nnc1-c1cnccn1,50,98,1,-2.5,i,1.1,98
Cc1c(C(=O)N2CCCCC2)sc(NC(=O)C2CC2)c1C#N,/,/,-3,-2.5,i,0.93,96
O=C1N(CN2C(=O)C3(OCCO3)c3ccccc32)c2ccccc2C12OCCO2,/,/,-2,-1.4,i,0.88,91
CCOc1ccc(-n2cc(C(=O)NC(C)C)c3cc(OC)c(OC)cc3c2=O)cc1,-16,40,0,-1.0,i,0.85,98
O=C(/C=C/c1ccccc1[N+](=O)[O-])c1ccccc1Br,18,104,2,/,i,0.69,96
COC(=O)COc1ccc2oc(=O)cc(C)c2c1,-19,172,-5,-1.3,i,0.9,89
O=C(COC(=O)c1ccccc1Cc1ccccc1)Nc1ccc(SC(F)F)cc1,7,92,7,-0.2,i,0.98,88
CCOC(=O)C(C)Oc1cccc2c(=O)n(CC(=O)NCc3ccc4c(c3)OCO4)ccc12 (centres undefined),/,/,-2,-2.3,i,0.44,106
CC1(C)NC(=O)N(CC(O)CN2CCOCC2)C1=O (centres undefined),/,/,8,-2.3,i,0.89,106
Cc1ccc2c(c1)nnn2C1CCN(CC(=O)NCCc2ccccc2)CC1,52,118,-12,-2.2,i,0.9,96
COc1ccccc1CNC(=O)c1ccc(C)s1,/,/,-1,/,i,1.1,101
CC(=O)N1CCc2cc(Br)cc(S(=O)(=O)NCc3ccccn3)c21,-7,40,0,-1.6,i,0.78,100
CCc1nnc(NC(=O)Cn2ccc(C(F)(F)F)n2)s1,-25,46,-10,-0.2,i,1,104
CC(C)C(C(=O)Nc1ncn[nH]1)N1C(=O)c2ccccc2C1=O (centres undefined),-36,132,0,-1.9,i,1,99
NS(=O)(=O)c1ccc(NC(=O)/C=C/c2ccco2)cc1,-44,107,-3,/,i,0.98,103
CC(C)CC(=O)NC(=S)Nc1cc(C(=O)O)ccc1Cl,40,96,-1,0.4,i,0.86,103
O=C(/C=C/c1ccc([N+](=O)[O-])cc1)Nc1cccnc1,-10,154,-14,-0.2,i,0.87,109
COc1ccc2c(C=Nc3c(C)n(C)n(-c4ccccc4)c3=O)c(O)n(Cc3ccco3)c(=O)c2c1,64&-3,66&115,-10&-1,-1.2&1.4,i,0.87,101&101
O=S(=O)(c1ccccc1)N1CCC(O)(CSc2ccc(F)cc2)CC1,/,/,-6,/,i,1,101
O=C1NC(=O)/C(=C\c2ccsc2)N1,72*,64*,0,/,i,1,99
CC1CCN(CCC(=O)Nc2ccccc2)CC1,79*,40*,-6,/,i,0.97,112
CCCc1nc2c(sc3nc4c(cc32)COC(C)(C)C4)c(=O)n1Cc1ccco1,-27,118,-9,0.1,i,0.7,96
CCOC(=O)C1CCN(C(=O)CCc2nc3ccccc3[nH]2)CC1,41,128,-12,-1.9,i,0.89,100
O=c1nc(-c2ccccc2)n(-c2ccccc2)c2ncccc12,/,/,3,-1.0,i,0.99,99
CN1C(=O)Cc2cc(S(=O)(=O)N3CCOCC3)ccc21,-10,92,3,-0.6,i,0.93,96
CCC1CSC(Nc2ccc(C(=O)/C=C/c3ccc(Oc4ccccc4)cc3)cc2)=N1 (centres undefined),7,101,-9,-0.7,i,0.93,103
CC(C(=O)OCC(=O)c1ccccc1)N1C(=O)C2C3CCC(C3)C2C1=O (centres undefined),/,/,3,/,i,1,100
Cc1ccc2nc(NCC(N)=O)nc(-c3ccccc3)c2c1,/,/,/,/,i,0.92,108
COc1ccc2c(CC(=O)Nc3ccc(OC)c(NS(=O)(=O)c4ccc(F)cc4)c3)coc2c1,62,83,0,-0.1,i,0.74,103
# Going on with the list.
SMILES,Insulin prom inh,Insulin prom inh cell count,PKD1 inh,GALR2 ag,HSV augment,HSV augment primary fold,RGS16-Gao
CC(C)(C)c1ccc(-c2n[nH]c(=S)n2CCCN2CCOCC2)cc1,-5,94,-11,/,i,1.1,91
CCOc1cc(CNc2ccc(N3CCOCC3)cc2)cc(Br)c1OCC,57,106,8,-0.8,i,0.68,108
CC(C)(CO)NCC#Cc1ccccc1,/,/,-2,/,i,0.95,98
CCc1nnc(NC(=O)CSc2nnc(-c3c[nH]c4ccccc34)n2CCOC)s1,/,/,-5,-0.6,i,0.97,110
CC(=O)c1sc(-c2ccc(Cl)cc2)cc1N,/,/,/,/,i,1.1,90
O=C(CCCN1C(=O)/C(=C/c2ccco2)SC1=S)Nc1ccccc1C(=O)O,/,/,/,/,i,0.98,94
Cc1ccc(C(=O)NC(C)c2nc3ccccc3n2CC(=O)Nc2c(C)cc(C)cc2C)cc1 (centres undefined),/,/,/,/,i,0.88,94
CCOC(=O)C1CCN(CCC(=O)Nc2ccc(C)c(C)c2)CC1,20,63,-4,/,i,0.98,104
CC(C)c1ccc(-c2cc(C(=O)NN3CCN(C)CC3)c3ccccc3n2)cc1,/,/,2,-0.9,i,0.75,110
Cc1cc(Nc2ccc3c(c2)OCCO3)n2nc(C)nc2n1,/,/,-4,-2.7,i,0.99,102
O=C(Nc1ccccc1N1CCOCC1)C1CCN(S(=O)(=O)c2ccc(F)cc2)CC1,-11,103,-7,-1.1,i,0.95,101
CCOc1ccccc1NC(=O)CN(c1ccc(C)cc1)S(=O)(=O)c1c(C)n[nH]c1C,/,/,-11,0.7,i,0.88,100
Cc1c(C(N)=O)sc2ncn(CC(=O)OC(C)C)c(=O)c12,-71,30,6,-1.6,i,0.91,103
CCCc1nn(C)c(C(=O)Nc2ccc(C(C)(C)C)cc2)c1Cl,-63,78,-8,1.8,i,0.98,104
CN1CCN(C(=S)C(=O)Nc2ccc(Br)cc2)CC1,/,/,-4,/,i,1,71
COc1ccccc1/C=C/C=N/N1CCN(c2ccccn2)CC1,3,70,0,-3.1,i,1,102
O=C(NCc1ccco1)c1cc(-c2cccnc2)nc2ccccc12,22,104,1,-1.4,i,0.92,95
CCCCOC(=O)Nc1nc2ccc(OC)cc2s1,-325,64,2,-0.9,i,1,105
CC(C)NCCCCOc1cccc(Br)c1,-23,67,-19,-1.4,/,/,105

# Three entries already listed, sorted by the number in RGS16-Gao, highest first:
SMILES	RGS16-Gao
CCCc1nn(C)c(C(=O)Nc2ccc(C(C)(C)C)cc2)c1Cl	104
O=C(NCc1ccco1)c1cc(-c2cccnc2)nc2ccccc12	95
CN1CCN(C(=S)C(=O)Nc2ccc(Br)cc2)CC1	71

# High-throughput results: PubChem BioAssay, several laboratories
